Compound activity (PubChem)
TRPML1 blocker: blocks the human TRPML1 channel | Q9GZU1 | TRPML1-inducible cells, Ca2+ dye fluorescence, FDSS; active compounds read low; inhibition of EC80 agonist-evoked calcium signal | activity change, negative = inhibition, % (no concentration beside the values) | 0.02% of 390,000 active | AID 624415; in the data active means activity change below about -50%; inconclusive means about -30% to -50%; inactive means above about -30%;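 also: stimulus is agonist 54-4 at its EC80 concentration; % is scaled to controls: 0 for no effect and ±100 for the full control effect; compound concentration not given in the record; the text of the record puts the active cut at -80%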
Target sequence (Q9GZU1 whole entry, looked up): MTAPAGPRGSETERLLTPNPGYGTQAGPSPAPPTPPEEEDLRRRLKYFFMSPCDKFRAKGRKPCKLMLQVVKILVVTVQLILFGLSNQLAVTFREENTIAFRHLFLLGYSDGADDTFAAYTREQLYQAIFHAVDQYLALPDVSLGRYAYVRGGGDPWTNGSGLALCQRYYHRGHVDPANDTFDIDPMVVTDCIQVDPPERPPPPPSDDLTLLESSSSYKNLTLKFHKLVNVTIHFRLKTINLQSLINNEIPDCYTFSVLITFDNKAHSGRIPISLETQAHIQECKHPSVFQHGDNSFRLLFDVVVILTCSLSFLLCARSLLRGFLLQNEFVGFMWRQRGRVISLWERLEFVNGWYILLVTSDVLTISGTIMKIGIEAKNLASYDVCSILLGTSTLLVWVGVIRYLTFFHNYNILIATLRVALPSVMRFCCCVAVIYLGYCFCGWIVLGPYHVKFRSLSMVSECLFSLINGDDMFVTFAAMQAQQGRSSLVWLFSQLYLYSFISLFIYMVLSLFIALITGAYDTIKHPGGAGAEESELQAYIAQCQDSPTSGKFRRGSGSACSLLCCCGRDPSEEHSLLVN
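Calcium fluorescence in TRPML1-DL cells induced overnight with Tet: a 110 s read after compound pin addition, then a 110 s antagonist read after challenge with 54-4 at 4 uM final (EC80).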
TRPV1 PAM: enhances activation of the human vanilloid receptor TRPV1; 0.02% of 320,000 active; TRPV1-expressing cells, Fluo-8 calcium influx, capsaicin EC20 potentiation; host cell line not named in the record; control for the full effect not named in the record; potentiation, % at 8.33 µM; active means potentiation above 80%; inconclusive means 30% to 80%; inactive means below 30%; also: 0% is about no effect
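TRPV1-expressing cells were cultured overnight at 35.5C and loaded with Fluo-8 calcium dye for 40 to 90 min at room temperature. After a 10 s baseline, compound was added and calcium influx was read kinetically for 3 min (ex 480/em 520 nm).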
gsp antag: antagonists of gsp mutant (McCune-Albright syndrome) | gsp-mutant cells, cAMP HTRF, 30 min; control for the full effect not named in the record | Potency, µM (top dose mostly 76.9 µM), for the others: at the top dose activity change, negative = inhibition, hits mostly inhibitors | 0.4% of 340,000 active | AID 624288; active = falling curve of any shape with a large fitted effect; inconclusive = falling curve, mostly with a smaller effect; inactive = flat or rising curve; cell line not stated here;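 also: intracellular cAMP measured with PDE inhibitor Ro 20-1724 present during compound exposure; potency is read from the fitted curve at half-maximal effect; % is scaled to controls: 0 for no effect and ±100 for the full control effect; nearly all actives have a fitted effect of over 65% in size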
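HTRF cAMP read-out (cAMP-d2 plus anti-cAMP antibody-K in lysis buffer, 30 min RT). Before lysis, cells are exposed to compounds with […] for 30 min at 37C in DPBS containing Ca/Mg, BSA and Tween 20.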
Menin-MLL FL inh: displaces fluorescein MLL peptide from human menin; Fluorescence polarization, fluorescein-MLL peptide displacement from menin; FP activity change, % at 61.4 µM; AID 1766; 290,000 tested, under 10 active; inconclusive = falling polarisation curve, or a change in total fluorescence; inactive = total fluorescence flat and polarisation flat or rising; no compound was filed as active; the % refers to the polarisation; negative = inhibition;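 also: % of control where 0% means no effect; inhibitors lower the polarisation; unlabelled MLL peptide was the positive control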
ClpP mod: qHTS Assay for Activators of ClpP; ATP-dependent Clp protease proteolytic subunit (Bacillus subtilis (strain 168)), P80244; purified B. subtilis ClpP, FRET peptide cleavage, 20 min; Potency, µM (doses to about 57.5 µM), for the others: at the top dose activity change, negative = active; 1.9% of 340,000 active; AID 651965, 2013; active = well fitted falling curve with a large enough effect; inconclusive = small, poorly fitted or top-dose-only effect; inactive = no such curve, though single readings can be large or run the other way; also: potency is read from the fitted curve at half-maximal effect; the source files actives as falling curves though it sought activators and does not explain the sign; nearly all actives have a fitted effect of over 65% in size; many hits overshoot -100%
Target sequence (P80244 whole entry, looked up): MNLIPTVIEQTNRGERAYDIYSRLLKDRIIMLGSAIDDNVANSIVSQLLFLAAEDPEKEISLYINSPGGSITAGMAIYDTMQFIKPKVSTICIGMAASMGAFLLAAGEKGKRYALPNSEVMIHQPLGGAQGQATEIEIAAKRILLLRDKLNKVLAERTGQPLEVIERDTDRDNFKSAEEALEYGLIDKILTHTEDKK
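Buffer: 100 mM Tris/HCl pH8, 100 mM KCl, 0.05% low protease BSA, 2.5% glycerol, 0.01% Tween-20. ClpP 10 microg/mL final; 20 min RT; delta FRET normalized to ADEP and DMSO controls.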
gsp ag: activates gsp, the McCune-Albright syndrome mutation. Potency, µM (top dose mostly 76.9 µM), inactives show at the highest dose activation (cAMP increase), actives largely listed as activators. 0.13% of 340,000 active. gsp mutant cells, cAMP HTRF, 30 min; control for the full effect not named in the record; active = well fitted activation curve with a large enough effect; inconclusive = small, poorly fitted or top-dose-only effect, or another doubt; inactive = no such curve, though single readings can be large or run the other way; cell line not stated here;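 also: phosphodiesterase inhibitor Ro 20-1724 added with compounds to block cAMP breakdown; potency is read from the fitted curve at half-maximal effect; nearly all actives have a fitted effect of over 60% in size; about a fifth of the inactives were tested at one dose only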
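Cells stably selected in G418 were plated at 2000/well, grown 16-24 hr, then given compounds in DMSO with the PDE inhibitor […] (300 uM solution added) for 30 min at 37C; cAMP was read by HTRF.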
Sfp inh: inhibitors of Bacillus subtilis Sfp phosphopantetheinyl transferase | Biochemical Sfp PPTase activity, qHTS | Potency, µM, for inactives: max response, negative = inhibition, hits mostly inhibitors | 3.5% of 310,000 active; active = well fitted inhibition curve with a large enough effect; inconclusive = small, poorly fitted or top-dose-only effect, or another doubt; inactive = no such curve, though single readings can be large or run the other way;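 also: the enzyme is Sfp with the accession as filed and its product quenches rhodamine fluorescence; potency is read from the fitted curve at half-maximal effect; 0% = enzyme reaction without inhibitor and -100% = no enzyme wells; top concentration of the series not given in the record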
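After 15 min at room temperature with compound, 15 nM Sfp received 5 uM rhodamine-CoA plus 12.5 uM BHQ-2-ybbR (50 mM Hepes pH 7.6, 10 mM MgCl2). Rate came from the fluorescence difference over 30 min, ex 525/em 598 nm.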
Numbers without * were called inactive; ? = inconclusive; · = no result given; [ ] = dose if it differs, or a comment.

SMILES | TRPML1 blocker | TRPV1 PAM | gsp antag | Menin-MLL FL inh | ClpP mod | gsp ag | Sfp inh
CCc1ccccc1N(CC(=O)N1CCCCCC1)S(C)(=O)=O | -8 | -21 | 8% | -6.3 | · | -9% | 13%
COc1cc(C)c(C(C)C)cc1S(=O)(=O)NCCCn1ccnc1 | 8 | 6 | -4% | 1.1 | -1.3% | 16% | 10%
O=C(OCCCN1CCCC1)C1(c2ccccc2)CCCC1 | -6 | 21 | 13% | 1.0 | 1.1% | 9% | 16%
O=C(c1cc(Cl)ccc1F)N1CCCC(Nc2ccc3c(c2)OCCO3)C1 (configuration not stated) | -21 | -27 | -12% | · | -2.3% | -27% | -1%
CCOc1cccc(C2/C(=C(/O)c3ccc4c(c3)CC(C)O4)C(=O)C(=O)N2Cc2ccncc2)c1 (configuration not stated) | 7 | 14 | -13% | · | -0.1% | 5µM* | 2%
O=C(N/N=C/c1ccc2c(c1)OCO2)C(=O)Nc1ccccc1 | 23 | 4 | -15% | -0.5 | -1.9% | 6% | 19%
COc1ccc(OC)c(S(=O)(=O)N(C)CC(=O)N2CCc3ccccc3C2)c1 | 5 | -9 | 0% | 0.3 | -0.9% | -2% | 0%
Cc1ccc(CNC(=O)CSc2nc(C)cc(C)c2C#N)cc1 | -7 | 26 | 31%[activator] | 1.9 | 1.3% | 3% | -2%
N#CCCn1c2ccccc2c2nc3ccccc3nc21 | 10 | -3 | -5% | 2.5 | -17% | 16% | 0%
Oc1ccccc1CN1CCCC(N2CCN(c3cccc(C(F)(F)F)c3)CC2)C1 (configuration not stated) | -8 | -1 | 10% | 0.9 | 0.7% | -8% | 9%
N#Cc1c(SCC(=O)N2CCCCC2)nsc1SCC(=O)N1CCCCC1 | 6 | 1 | -4% | 2.8 | 2.6% | 11% | 21%
CCOc1ccc(NC(=O)CN2CCN(CC(=O)Nc3ccc(F)c(F)c3)CC2)cc1 | -17 | 4 | -1% | 4.5 | 3.2% | 10% | -1%
Cc1ccc(S(=O)(=O)N2CCN(C(=O)c3cccs3)CC2)cc1 | -4 | 4 | -8% | -3.3 | · | -6%[15.4 µM] | 13%
COC(=O)c1c[nH]c2c1-c1cc(C(=O)OCc3ccccc3)n(S(=O)(=O)c3ccc(C)cc3)c1C(=O)C2=O | 22 | · | 15% | · | 1.7% | 3% | ·
COCCNC(=O)CN(C(=O)CCC(=O)Nc1ccccn1)c1ccc(C)c(C)c1 | -7 | 8 | 4% | 3.7 | · | -44%[inhibitor] | 13%
COc1ccc(-n2c(SC(CN3CCCCC3)CN3CCCC3=O)nc3ccccc3c2=O)cc1 (configuration not stated) | -6 | 1 | 2% | 21 | -2.1% | 1% | ?
O=C(NCc1ccc2c(c1)OCO2)Nc1ccc(F)cc1 | 12 | -4 | 9% | -7.6 | 1.1% | 2% | 3%
N#CCCN(C(=O)Nc1ccc(Cl)c(Cl)c1)c1ccccc1 | 31 | -10 | -20% | 3.7 | -2.0% | -22% | 10%
COC(=O)c1sccc1NC(=O)Nc1cc(OC)ccc1OC | -4 | -5 | -17% | -0.8 | -1.7% | 10% | 7%
Cc1ccc2[nH]c(C(=O)O)c(NC(=O)[C@@H]3C[C@@H]3c3ccccc3)c2c1 | -4 | 13 | 10% | 8.3 | · | 11% | 19%

Record cards, from the list above. Values in the order: TRPML1 blocker, TRPV1 PAM, gsp antag, Menin-MLL FL inh, ClpP mod, gsp ag, Sfp inh
COc1ccc(-n2c(SC(CN3CCCCC3)CN3CCCC3=O)nc3ccccc3c2=O)cc1 (configuration not stated) is listed as -6, 1, 2%, 21, -2.1%, 1%, ?
O=C(c1cc(Cl)ccc1F)N1CCCC(Nc2ccc3c(c2)OCCO3)C1 (configuration not stated) is listed as -21, -27, -12%, ·, -2.3%, -27%, -1%

The listing continues.
SMILES | TRPML1 blocker | TRPV1 PAM | gsp antag | Menin-MLL FL inh | ClpP mod | gsp ag | Sfp inh
Cc1cc(C)n(-c2ccc(C(=O)Nc3cccnc3)cc2)n1 | 32 | 2 | -11% | 4.2 | 1.1% | -7%[15.4 µM] | 8%
O=C(Nc1cccc(S(=O)(=O)N2CCCCC2)c1)C1CC1 | -3 | -3 | 9% | · | -0.6% | ? | ·
C=CCn1c(-c2ccccc2[N+](=O)[O-])n[nH]c1=S | 7 | -6 | 10% | -0.4 | · | -6% | -13%
CC1CCCN(S(=O)(=O)c2cc(Cl)ccc2Cl)C1 (configuration not stated) | 17 | -18 | -12% | 3.8 | -1.6% | 0% | -10%
COc1ccccc1N1CCN(Cc2cc(=O)c(OCC#N)co2)CC1 | 3 | -7 | 4% | · | -0.9% | ? | 11%
COCC(C)NC(=O)c1ccccc1OC(C)=O (configuration not stated) | -14 | 6 | 9% | -1.4 | 25µM* | 4% | 15%
O=C(COC(=O)c1cc(Br)ccc1Cl)NC1CC1 | 30 | 1 | 8% | -0.1 | -4.2% | 12% | 0%
CCn1c(SCc2cccc(C(=O)O)c2)nnc1-c1ccccc1 | -3 | 0 | 1% | 4.7 | 0.6% | -11% | 21%
CCOC(=O)[C@@H]1[C@H]2COc3ccc(Br)cc3[C@@H]2N2C(=O)N(c3cccc(F)c3)C(=O)[C@]12C | 37 | · | -10% | · | -2.1% | ? | ·
O=C(NCC(=O)N1CCCCCCC1)c1ccccc1Br | 7 | 7 | 4% | · | 0.1% | 17%[15.4 µM] | ·
C=CCOc1ccc(CNn2c(C)n[nH]c2=S)cc1OC | -1 | -3 | 5% | 0.3 | -12% | 12% | -6%
CCc1nn(CC(=O)NCc2cccnc2)c(=O)c2cc3occc3n12 | -2 | 24 | 12% | · | -4.7% | ? | 9%
CCCS(=O)(=O)c1c(S(=O)(=O)CCC)c2cc(-c3ccncc3)ccn2c1C(=O)OC | 49 | -21 | · | -5.7 | · | -15%[15.4 µM] | -3%
O=C(N/N=C/c1cccnc1)C(=O)N1CCCCCC1 | 12 | -3 | 20% | -7.6 | -0.8% | -1%[15.4 µM] | 10%
Cc1cc(C(=O)COc2cc(F)ccc2[N+](=O)[O-])c(C)n1CC1CCCO1 (configuration not stated) | -13 | · | -3% | · | -4.2% | -4% | ·
CN(CC(=O)Nc1ccc(Cl)cc1)C1CCCCC1 | 1 | -1 | 6% | 0.6 | 0.6% | 23% | 21%
O=C(Nc1cccc(Cl)c1)c1ccc2c(c1)OCCO2 | -2 | -12 | -7% | -1.2 | · | -13% | 11%
CCN(CC)C(CNC(=O)CSc1nnnn1-c1cccc(F)c1)c1ccco1 (configuration not stated) | 19 | 2 | 5% | · | 1.2% | ? | ·
CCSc1ccccc1C(=O)NCc1ccc(OC)cc1 | 10 | 4 | 3% | 1.9 | 0.0% | 11% | 2%
CCOC(=O)CCN1C(=O)c2ccccc2Sc2ncccc21 | -6 | 3 | 7% | -0.2 | 0.0% | -3%[15.4 µM] | 5%
CC(C)Oc1ccccc1C1(c2ccccc2)NC(=O)NC1=O (configuration not stated) | · | -1 | 3% | 0.6 | -0.6% | -14% | 5%
CCOc1ccc(-c2cn(S(=O)(=O)c3cccc4nsnc34)nc2N)cc1 | 7 | 6 | -7% | 2.7 | 0.8% | 4% | 1%
O=c1[nH]ncc2c3ccccc3n(Cc3ccc(F)cc3)c12 | 11 | -8 | 12% | -4.3 | -25% | -25% | -7%
COC(=O)c1cc(OC)c(OC)cc1NC(=S)N1CCN(c2ccccn2)CC1 | 2 | -1 | 5% | 1.2 | · | -4%[15.4 µM] | 0%
Cc1cccc(C)c1NC(=O)C1CCCN1C(=O)Nc1cccc(F)c1 (configuration not stated) | -4 | -6 | 3% | 1.2 | · | -13% | 18%
CS(=O)(=O)N1CCc2cc(C(=O)Nc3ccccc3Br)ccc21 | · | -20 | -4% | 0.4 | -0.8% | 32% | 8%
COc1ccc(/C=N/NC(=O)c2[nH]c(C)c(C(=O)N/N=C/c3ccc(OC)cc3)c2C)cc1 | 5 | 4 | -9% | -0.2 | -4.1% | 28% | 13%
CCOc1ccc(CN2C(=O)c3ccccc3C2C(=O)NCC2CCCO2)cc1 (configuration not stated) | -3 | 7 | 5% | -6.3 | · | 20%[15.4 µM] | 24%
CC1CCC(C(O)(C(=O)O)C2CCCCC2)CC1C (configuration not stated) | 11 | · | 6% | · | -0.9% | 19% | ·
COc1ccccc1OCC(=O)Nc1ccc(S(=O)(=O)Nc2cc(C)nc(C)n2)cc1 | 3 | 15 | -5% | 2.2 | -1.2% | -53%[inhibitor] | 6%
O=C(NCCCO)C(=O)NCC(c1ccc2c(c1)OCO2)N1CCN(c2ccc(F)cc2)CC1 (configuration not stated) | 2 | 6 | -1% | 1.3 | -0.4% | 1% | 5%
Cc1ccc(-c2nnc3ccc(SCC(=O)Nc4cc(C)on4)nn23)cc1 | -2 | -1 | 1% | -1.4 | -6.4% | -1% | 7%
CC1(C)NC(=O)N(CC(O)Cn2c3ccccc3c3ccccc32)C1=O (configuration not stated) | -17 | -19 | 14% | 2.9 | -0.4% | 23% | 11%
COc1cc(OC)nc(Oc2cccc(Cl)c2C)n1 | 39 | · | -6% | · | · | 12%[15.4 µM] | ·
Cn1c(SCC(=O)c2c(N)n(C)c(=O)n(C)c2=O)nnc1-c1ccccc1F | 2 | -11 | · | 7.2 | · | -1%[15.4 µM] | 10%
CC(C)CCNC(=O)CN(C(=O)CCC(=O)Nc1ccccn1)c1ccc(F)c(Cl)c1 | 11 | 0 | 7% | 7.8 | 0.4% | -36%[inhibitor] | 1%
CC12CCC(C(=O)NC3CCCCC3)([C@H](Br)C1=O)C2(C)C (some centres not stated) | -1 | -2 | 0% | 0.0 | -1.8% | 0% | 20%
CC(C)C(=O)Nc1nnc(-c2ccccc2)o1 | 11 | · | 11% | 4.5 | -12% | -38%[inhibitor] | -11%
O=C(Nc1cccnc1Cl)c1cc(-c2ccc(F)cc2)on1 | 13 | 6 | 0% | 8.4 | · | -15%[15.4 µM] | 1%
CS(=O)(=O)N(CC(=O)N1CCc2ccccc2C1)c1ccc(Br)cc1 | -25 | · | -8% | · | · | 1%[15.4 µM] | ·
CCCNS(=O)(=O)c1ccc(OCC(=O)N2CCCC2)cc1 | -12 | 10 | 7% | 2.1 | · | -1%[15.4 µM] | 17%
Cc1ccc(CNC(=O)c2cncc(Br)c2)cc1 | -7 | -6 | -5% | 2.5 | · | 5% | 3%
